Bioassay records deposited in PubChem by National Center for Advancing Translational Sciences (NCATS).
miR-21 FLuc: miR-21 reporter, rising signal; HeLa miR-21 FLuc reporter, luciferase, 48 h; 340,000 tested, under 10 active; Potency, µM (top dose mostly 38.3 µM), for inactives: top-dose reporter change, positive = more light; active = well fitted rising curve with a large enough effect; inconclusive = small, poorly fitted or top-dose-only effect; inactive = no such curve, though single readings can be large or run the other way;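 note: % of control where 0% means no effect; miR-21 action dims this reporter so a rising signal means less miR-21 action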
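HeLa cells stably expressing CMV-driven firefly luciferase with a downstream miR-21 binding sequence, endogenously expressing miR-21, were treated with titrations (up to about 40uM final) for 48 hours at 37 degree Celsius. Luciferase luminescence was read after lysis.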
GLA inh pH 4.5: alpha-galactosidase A (human) inhibition, pH 4.5 | purified enzyme, 4-MU-alpha-Gal fluorescence, pH 4.5 | activity change, negative = inhibition, % at 105 µM | 230,000 tested, under 10 active; inconclusive = small, poorly fitted or top-dose-only inhibition, or a rising curve; inactive = flat fitted curve, though single readings scatter; no compound was filed as active;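 note: 0% = full activity with enzyme and -100% = basal without enzyme; dose as in the result columns while the protocol names 77 µM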
Rango complex inh: inhibitors of Rango-importin beta complex formation; Rango CFP/YFP FRET sensor + importin beta, 45 min; Q14974; actives 0.031% (n = 340,000); Potency, µM (titrated, usually from 92.2 µM), inactives show at the highest dose inhibition of complex formation; active = rising FRET ratio curve, often small or poorly fitted; inconclusive = mostly compound fluorescence or quenching in the first reads; inactive = flat curves in all reads;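 note: potency is the fitted concentration of half-maximal effect; 0% = DMSO wells and 100% = buffer wells lacking importin beta; nearly all actives have a fitted effect of over 15% in size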
Target sequence (Q14974 whole entry, looked up): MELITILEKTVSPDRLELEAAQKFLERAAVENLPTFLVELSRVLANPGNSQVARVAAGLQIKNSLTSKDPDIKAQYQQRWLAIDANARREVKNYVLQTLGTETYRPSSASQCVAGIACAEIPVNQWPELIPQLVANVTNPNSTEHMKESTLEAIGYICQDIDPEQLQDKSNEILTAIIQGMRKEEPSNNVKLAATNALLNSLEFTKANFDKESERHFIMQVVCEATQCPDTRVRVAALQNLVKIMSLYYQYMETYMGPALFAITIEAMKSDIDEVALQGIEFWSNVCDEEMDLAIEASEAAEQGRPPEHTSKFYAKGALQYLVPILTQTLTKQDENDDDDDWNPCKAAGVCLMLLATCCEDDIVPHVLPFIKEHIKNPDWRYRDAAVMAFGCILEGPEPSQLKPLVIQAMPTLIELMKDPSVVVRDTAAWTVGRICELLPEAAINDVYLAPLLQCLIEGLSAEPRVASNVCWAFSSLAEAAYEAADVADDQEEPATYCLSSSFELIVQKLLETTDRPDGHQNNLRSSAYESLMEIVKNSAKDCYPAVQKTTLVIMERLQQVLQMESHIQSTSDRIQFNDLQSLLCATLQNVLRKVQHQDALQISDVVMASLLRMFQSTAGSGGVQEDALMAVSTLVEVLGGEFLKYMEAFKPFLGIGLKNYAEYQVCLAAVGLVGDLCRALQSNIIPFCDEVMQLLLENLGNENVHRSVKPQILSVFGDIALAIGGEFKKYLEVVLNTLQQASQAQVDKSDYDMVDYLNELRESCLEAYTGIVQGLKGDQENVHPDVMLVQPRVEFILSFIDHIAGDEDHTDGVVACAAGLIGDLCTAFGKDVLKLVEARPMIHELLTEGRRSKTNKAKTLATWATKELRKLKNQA
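Inhibition scored from the CFP 486 nm/YFP 530 nm FRET ratio 45 min after adding 0.125 microM importin beta to 50 nM Rango biosensor preincubated 5 min with compound (room temperature, PBS with DTT, Tween-20, BSA). No-importin wells as positive control.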
Rango release inh: inhibition of RanGTP-driven Rango-importin beta dissociation; actives 0.071% (n = 340,000); AID 540253; Biochemical FRET Rango-importin beta, RanGTP-induced dissociation; Potency, µM (doses to about 46.1 µM), inactives show at the top dose activity change, negative = inhibition; O95149+P62826; active means falling FRET ratio curve, often poorly fitted, with flat reads before Ran was added; inconclusive means other falling curves, or compound fluorescence or quenching; inactive means flat or rising ratio curve;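 note: potency is the fitted concentration of half-maximal effect; % of control where 0% means no effect; nearly all actives have a fitted effect of over 45% in size; -100% = wells without RanGTP and RCC1; the record marks most hits as doubtful in a second field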
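Compounds sat 5 min at room temperature with 0.1 uM Rango biosensor plus 0.25 uM importin beta, then FRET pre-read. RanGTP-RCC1 (0.6 uM Ran, 2mM GTP, 0.2 uM RCC1) added for 45 min, and the CFP/YFP post-read measured blocked complex dissociation.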
* hit, by the source's call; ? = inconclusive; / = not tested or not shown; & = joins results of further samples. Not all compounds are listed, so the mix of outcomes need not match the whole.

miR-21 FLuc	GLA inh pH 4.5	Rango complex inh	Rango release inh	SMILES
/	/	-4.7%	-2.0%	Nc1nc(=S)c2[nH]c(=S)[nH]c2[nH]1
-15.6%	0.5	-1.0%	7.5%	Cc1ccc(CSCC(=O)N2CCN(c3ccccc3)CC2)cc1
4.1%	/	-3.5%	-7.0%	CCOc1ccccc1NC(=O)c1cc(S(=O)(=O)N2CCN(CC)CC2)ccc1Cl
-0.6%	6.6	-2.1%	19.4%	COCCCn1c(SCC(=O)NC2CCCC2)nnc1-c1ccco1
-0.2%	8.7	0.0%	1.6%	CC1=NC(C)(C)Cc2c(C)cccc21
-34.6%	/	1.7%	5.1%	Cc1ccc(C(=O)NNC(=O)c2cccc(Br)c2)cc1
/	/	0.1%	7.5%	Cc1ccc(F)cc1NC(=O)CN1C(=O)NC2(CCCc3ccccc32)C1=O (centres undefined)
0.3%	-7.8	?	?	CCCN1C(=O)/C(=C/c2ccc3c(c2)OCO3)NC1=S
4.5%	/	-1.1%	3.2%	O=C(CCNC(=O)C1CCN(S(=O)(=O)c2ccccc2)CC1)NCc1ccccc1Cl
-4.0%	/	0.5%	8.0%	CN1CCN(C(=O)C2CCC(=O)N(CCc3cccc(F)c3)C2)CC1 (centres undefined)

(cont.)
miR-21 FLuc	GLA inh pH 4.5	Rango complex inh	Rango release inh	SMILES
/	/	-3.1%	-1.2%	COc1ccc(NS(=O)(=O)c2ccc(C)c(C(=O)NCCCN3CCCC3=O)c2)cc1
-61.5%	-9.2	0.1%	12.1%	N/C(=N\O)c1ccc(N2CCN(c3ncccc3C(F)(F)F)CC2)nc1
-9.0%	-2.8	2.7%	4.7%	COc1ccc(C(=O)NCCc2ccc(S(N)(=O)=O)cc2)cc1OC
-1.4%	-7.1	7.9%	3.3%	CC(=O)Nc1ccc2nc(CN3CCN(CC=C(C)C)C(CCO)C3)ccc2c1 (centres undefined)
-5.7%	-6.6	2.2%	-4.4%	O=C(CNC(=O)c1ccccc1F)OCC(=O)N1CCCc2ccccc21
-74.0%	4.2	-2.6%	0.1%	O=C(NC(=O)c1ccc(Cl)cc1)OC1CCCCC1
-12.8%	7.3	?	?	O=C(Cc1nc2ccccc2[nH]1)N/N=C/c1ccccc1
8.0%	/	-0.1%	-0.2%	Cc1ccc(N2CC(C(=O)N3CCC(C(=O)Nc4nncs4)CC3)CC2=O)cc1 (centres undefined)
23.0%	-2.1	-3.0%	4.7%	CC[C@@H](C)[C@@H](C(=O)N1CCN(C(=O)OC(C)(C)C)CC1)n1cc(CCCCNC(=O)OC(C)(C)C)nn1
/	/	3.7%	-5.4%	CCOC(=O)c1sc2nc(C)nc(SC(C)C(=O)N(C)c3ccccc3)c2c1C (centres undefined)

The listing continues.
miR-21 FLuc	GLA inh pH 4.5	Rango complex inh	Rango release inh	SMILES
3.3%	/	2.0%	-1.8%	NS(=O)(=O)c1ccc(CCNC(=O)CCc2nc3ccccc3s2)cc1
3.2%	-3.0	-0.8%	1.3%	CCOC(=O)NC(NCc1ccccc1)(C(F)(F)F)C(F)(F)F
-8.5%	6.5	-0.3%	13.6%	CNCCOc1ccc(Cl)c(Cl)c1
1.2%&-1.7%	8.9	0.1%	-4.8%	CC(=O)c1cccc(NC(=O)C2CCN(S(=O)(=O)c3ccccc3)CC2)c1
/	/	-3.7%	-0.3%	NC(=O)c1ccsc1NC(=O)COC(=O)c1ccncc1
/	/	-4.6%	-2.2%	CSc1ccc(CN(C)CC(=O)N(C)CC(=O)Nc2ccccc2Br)cc1
7.6%	-2.5	-0.8%	0.1%	CN=C(Nc1cccc(Cl)c1)SC1CC(=O)N(c2ccc(OC)cc2)C1=O (centres undefined)
-3.8%	-27.0	1.0%	9.7%	COc1ccc(C2N=C(N)N=C(N)N2c2ccccc2OC)cc1OC (centres undefined)
-7.6%	/	0.7%	6.1%	C=C(C)n1c(=O)n(Cc2ccc(C)cc2)c2ccccc21
0.3%	2.3	1.0%	4.2%	COc1ccc(S(=O)(=O)CCC(=O)NCCc2ccc(C)cc2)cc1

Arranged by molar mass (rising): seven of the compounds above.
miR-21 FLuc	GLA inh pH 4.5	Rango complex inh	Rango release inh	SMILES
-8.5%	6.5	-0.3%	13.6%	CNCCOc1ccc(Cl)c(Cl)c1
-7.6%	/	0.7%	6.1%	C=C(C)n1c(=O)n(Cc2ccc(C)cc2)c2ccccc21
3.2%	-3.0	-0.8%	1.3%	CCOC(=O)NC(NCc1ccccc1)(C(F)(F)F)C(F)(F)F
-3.8%	-27.0	1.0%	9.7%	COc1ccc(C2N=C(N)N=C(N)N2c2ccccc2OC)cc1OC (centres undefined)
1.2%&-1.7%	8.9	0.1%	-4.8%	CC(=O)c1cccc(NC(=O)C2CCN(S(=O)(=O)c3ccccc3)CC2)c1
7.6%	-2.5	-0.8%	0.1%	CN=C(Nc1cccc(Cl)c1)SC1CC(=O)N(c2ccc(OC)cc2)C1=O (centres undefined)
/	/	-4.6%	-2.2%	CSc1ccc(CN(C)CC(=O)N(C)CC(=O)Nc2ccccc2Br)cc1

The results go on:
miR-21 FLuc	GLA inh pH 4.5	Rango complex inh	Rango release inh	SMILES
-2.3%	-4.1	2.1%	-3.8%	Cc1ccc(OC(C)C(=O)N2CCCc3ccccc32)cc1 (centres undefined)
/	/	-0.4%	-0.6%	Cc1ccc(C2(C)NC(=O)N(CC(=O)N3CCN(S(=O)(=O)c4ccccc4[N+](=O)[O-])CC3)C2=O)cc1 (centres undefined)
-31.2%	-0.6	1.2%	26.0%	Cc1ccc(SCc2ccc(C(=O)N3CCCCC3)cc2)cc1
10.1%	/	1.3%	-7.8%	Cc1cccc(N(CC(=O)NCc2ccco2)C(=O)CCC(=O)Nc2ccccn2)c1C
-12.9%	/	0.6%	43.1%	O=C1Nc2ccccc2/C1=C/c1ccccc1F
-8.9%	1.7	-2.9%	4.5%	CC(=O)Nc1ccc(-c2cc(NC(C)=O)n(-c3ccccc3)n2)cc1
/	/	-1.0%	-4.1%	COc1ccc(S(=O)(=O)N2CCc3ccccc32)cc1C(=O)NCCc1ccc(S(N)(=O)=O)cc1
0.0%	-8.6	?	-19.0%	Cc1sc2nc(CSc3nnc(Cc4cccs4)n3C3CCCCC3)[nH]c(=O)c2c1C
0.1%	-1.6	?	-3.9%	COc1ccc(/C=C2\N=C(C)OC2=O)cc1[N+](=O)[O-]
4.6%	4.1	1.3%	10.8%	C=CCn1c(SCC(=O)N2CCOCC2)nc(O)c(Cc2ccccc2)c1=O

Continued:
miR-21 FLuc	GLA inh pH 4.5	Rango complex inh	Rango release inh	SMILES
/	/	-4.2%	-4.2%	Cc1c(C(=O)NCC(C)(C)N2CCOCC2)oc2ccccc12
2.3%	-3.4	2.9%	-3.7%	Cc1ccccc1S(=O)(=O)Cc1ccc(C(=O)NCc2cccs2)o1
-1.9%	5.8	4.7%	2.9%	COc1ccc(/C=N/NS(=O)(=O)c2ccccc2)cc1OS(=O)(=O)c1ccccc1
-7.3%	0.8	6.1%	1.1%	COc1ccc(NC(=O)C2CCN(S(C)(=O)=O)CC2)cc1
-29.8%	3.6	2.6%	-22.2%	COc1ccc(C2Nc3ccccc3C(=O)N2NC(=O)c2ccccc2)cc1OC (centres undefined)
-40.6%	-11.2	-5.6%	4.1%	O=C(/C=C/c1c(Cl)cccc1Cl)Nc1ccncc1
/	/	0.0%	-2.7%	CC(C)Cc1csc(=S)[nH]1
/	/	-5.1%	9.2%	CC(C)CC1Nc2ncnc(N3CCN(c4ccccc4)CC3)c2N(Cc2ccc(Cl)cc2)C1=O (centres undefined)
8.4%	-1.7	-1.7%	0.9%	Clc1ccc(COc2ccccc2CNCc2cccnc2)cc1
-32.8%	/	-0.9%	-28.7%	CCOC(=O)c1c(NC(C)=O)sc(/C(C)=N/Nc2ccc(C(=O)O)cc2)c1C
-0.8%	5.3	4.6%	9.7%	Cc1ccc(-n2nnnc2-c2cccnc2)cc1
